Vif A3G = HIV-1 Vif–A3G interaction blockers – biochemical, TR-FRET, GST-Vif 1-94, biotin-A3G peptide, dose response retest, primary screen (AID 1117319); TR-FRET GST-Vif / biotin-A3G peptide binding; higher % means a stronger effect; test concentration not given here; strong numbers were not always called active; inhibition, %, or IC50 in µM where a hit was titrated; actives 0.57% (n = 260,000);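 active means above the screen mean plus three standard deviations and confirmed in dose response; inconclusive means results disagree or hit not tested in dose response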;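 further: Vif residues 1-94 fused to GST binding biotinylated APOBEC3G peptide 110-148; 0% = full assay without inhibitor and 100% = GST in place of GST-Vif; retest series ran down from 100 µM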
LANA-H2A inh = blocks KSHV LANA binding to histone H2A/H2B | Q9QR71 | cell-free LANA-H2A/H2B peptide, fluorescence polarization | inhibition, % (test concentration not listed) | actives 0.6% (n = 320,000) | AID 2629; in the data active means inhibition mostly above about 10%, no sharp cut-off; inactive means mostly below about 6.7%;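 further: stock transfer was 7.5 nL into about 10 µL; 0% = median of vehicle wells and 100% = median of positive control wells; one replicate is shown; the record names a cut of 25% in any replicate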
Calb FLC = C. albicans growth modulation with fluconazole. C. albicans CaCi-2 (fluconazole-resistant clinical isolate) + fluconazole, Alamar Blue growth, 48 h. actives 0.57% (n = 300,000). growth inhibition, % (concentration not given with the values);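 active means most replicates above 75%; inconclusive means exactly half above 75%; inactive means most below 75%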;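 further: all wells also contain fluconazole at 8 µg/ml as a sub-toxic cotreatment; 0% = median of DMSO wells and 100% = median of geldanamycin control wells; wells of about 8 µL received 7.5 nL stock; the first replicate is given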
RanGTP-Imp inh = inhibitors of RanGTP-importin-beta interaction, primary screen, biochemical, FRET, CFP-Ran, YFP-importin-beta, homogeneous. AID 2216. inhibition, % (no concentration beside the values). cell-free CFP-Ran/YFP-importin-beta FRET ratio. actives 1.1% (n = 300,000);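 active means most replicates above 15%; inconclusive means exactly half above 15%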;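 further: 0% = DMSO wells and 100% = Ran loaded with GDP instead of GTP; wells of about 40 µL received 100 nL stock; the first replicate is given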
B2AR ag = agonists of human beta-2 adrenergic receptor inducing internalization; P07550; Am2.2-beta2AR cells, FAP receptor internalization, flow cytometry; reference of the scale not given here; response, % (concentration not given with the values); actives 0.43% (n = 340,000);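 active means response above a set limit, near 3 SD of response in nonfluorescent compounds, cut at about 42% in these data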;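 further: stock transfer was 100 nL into about 11 µL; a reference agonist was the positive control; negative values mostly stem from fluorescent compounds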
Target sequence (P07550 whole entry, looked up): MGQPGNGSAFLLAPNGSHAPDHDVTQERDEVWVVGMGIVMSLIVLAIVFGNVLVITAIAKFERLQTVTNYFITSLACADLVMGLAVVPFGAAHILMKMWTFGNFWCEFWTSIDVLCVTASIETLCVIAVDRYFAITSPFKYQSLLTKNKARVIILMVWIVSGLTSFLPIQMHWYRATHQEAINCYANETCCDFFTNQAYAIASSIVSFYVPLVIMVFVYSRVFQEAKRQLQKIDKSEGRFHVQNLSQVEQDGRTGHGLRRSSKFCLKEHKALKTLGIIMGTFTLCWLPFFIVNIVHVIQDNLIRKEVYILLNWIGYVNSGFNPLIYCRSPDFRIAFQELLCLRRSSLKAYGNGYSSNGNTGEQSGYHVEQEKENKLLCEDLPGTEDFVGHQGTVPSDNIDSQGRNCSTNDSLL
ALR inh = inhibitors of human sulfhydryl oxidase ALR | purified ALR, DTT oxidation, H2O2 HRP-luminol luminescence | inhibition, % (concentration not given with the values) | actives 3.8% (n = 290,000);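 active means mean and each replicate at 75% or more; inconclusive means only one of the two met; inactive means neither met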;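 further: stock transfer was 7.5 nL into about 7.5 µL; 0% = neutral wells and 100% = wells with inactivated enzyme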
Target sequence (P55789 whole entry, looked up): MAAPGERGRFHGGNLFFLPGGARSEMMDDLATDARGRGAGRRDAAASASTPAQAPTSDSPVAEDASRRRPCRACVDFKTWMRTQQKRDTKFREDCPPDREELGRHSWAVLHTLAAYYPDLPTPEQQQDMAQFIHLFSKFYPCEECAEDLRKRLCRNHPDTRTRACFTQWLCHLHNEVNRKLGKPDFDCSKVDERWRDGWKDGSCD
HNF4A DNA FP = change in binding of human HNF4 alpha to DNA. HNF4a-FITC DNA binding, fluorescence polarization, 1 h. activity change, % at 10 µM. actives 0.3% (n = 360,000); in the data active means activity change above about 30%, passing the limit was not always enough;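 further: controls were the assay level and a saturating level of protein; the project sought stronger binding though the title names inhibitors; some compounds called inactive have numbers as strong as hits; positive values seem to mean higher polarization but the record does not say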
Target sequence (P41235 whole entry, looked up): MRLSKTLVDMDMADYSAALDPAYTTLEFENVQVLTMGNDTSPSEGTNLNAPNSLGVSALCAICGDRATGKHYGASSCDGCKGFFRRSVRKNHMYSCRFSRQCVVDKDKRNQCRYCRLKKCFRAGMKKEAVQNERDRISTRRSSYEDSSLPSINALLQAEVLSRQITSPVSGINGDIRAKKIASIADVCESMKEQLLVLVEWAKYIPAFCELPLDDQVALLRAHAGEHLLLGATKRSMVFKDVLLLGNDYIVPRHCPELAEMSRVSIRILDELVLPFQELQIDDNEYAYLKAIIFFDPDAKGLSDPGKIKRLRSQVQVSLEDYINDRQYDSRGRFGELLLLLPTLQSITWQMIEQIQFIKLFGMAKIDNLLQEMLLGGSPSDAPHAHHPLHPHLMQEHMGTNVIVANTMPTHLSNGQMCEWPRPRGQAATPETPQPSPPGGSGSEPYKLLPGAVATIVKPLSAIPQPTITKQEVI
An asterisk follows results filed as active; i = inactive; ? = inconclusive; nt = not tested or not shown; & = joins results of further samples. Some of the compounds tested (hit frequency here may not be typical).

entry	structure	Vif A3G	LANA-H2A inh	Calb FLC	RanGTP-Imp inh	B2AR ag	ALR inh	HNF4A DNA FP
1	CC/C(=N\Nc1ccccc1)c1c(O)n(-c2ccc(OC)cc2)c(=O)[nH]c1=O	14%	0.4	14	-3.8	-16	99*	-0.7
2	O=C(NC(Oc1ccccc1)C(Cl)(Cl)Cl)c1ccccc1 (configuration not stated)	-4%	-3.1	-1	1.6	0	3	0.1
3	Nc1cccc2c1Cc1cc([N+](=O)[O-])ccc1-2	0%	nt	nt	nt	2	nt	4.0
4	C[C@]12CCC(=O)C=C1CCC1C2CC[C@@]2(C)C1CC[C@@H]2O (some centres not stated)	-2%	-3.1	nt	nt	-2	-3	0.2
5	CN1C2CCC1CC(OC(=O)c1ccc(Cl)cc1)(C(=O)O)C2 (configuration not stated)	nt	-3.1	19	?	1	-14	2.4
6	CCCCCC[N+](=O)[O-]	nt	i	nt	nt	-8	7	2.4
7	CCCc1nc2ccccc2c(=O)n1-c1ccccc1OC	-5%	-0.9	29	-0.5	-2	1	4.1
8	O=C1NC(=O)C(CCc2ccccn2)(Cc2ccc3c(c2)OCO3)C(=O)N1CCc1ccccc1 (configuration not stated)	-5%	-0.5	0	1.6	-2	-6	0.5
9	CC12CCC(=O)C=C1CC(O)C1C2CCC2(C)C1CCC2(C)O (configuration not stated)	-7%	nt	nt	nt	-1	nt	1.9
10	COC(=O)C1=C(c2cc3ccccc3s2)C[C@@H]2CC[C@H]1N2C(=O)NC1CC1	nt	3.1	-1	-1.6	-4	0	0.2
11	COc1ccc(C(=O)C2(C)N(O)C(C)C(c3cccs3)=[N+]2[O-])cc1 (configuration not stated)	-2%	0.3	0	-6.1	2	5	-1.5
12	CCC(C)(C)c1ccc(O)cc1	nt	0.3	nt	nt	3	1	2.6
13	O=C1NC(=O)C(=Cc2ccccc2Oc2ccc(F)cc2)C(=O)N1	-1%	nt	nt	nt	-5	nt	0.6
14	COc1cc2c3c(c1OC)-c1cc(O)ccc1CC3NCC2 (configuration not stated)	13%	2.5	8	-2.0	2	-10	1.4
15	COCCN1Cc2cc(=O)n3c([nH]c4ccccc43)c2C1=N	-6%	-1.2	7	-15	13	34	-0.5
16	O=C(COc1ccccc1)N1CCN(CC(O)COc2ccccc2)CC1 (configuration not stated)	-2%	-0.1	8	-2.0	0	3	-0.2
17	CCCCn1c(O)c(C(CC)=NCCN2CCCCC2)c(=O)[nH]c1=O	4.1µM*	6.7	-1	2.8	2	-8	3.3
18	CCN1C[C@]2(C)CC[C@H](OC)[C@]34C2[C@H](OC(C)=O)[C@@]2(OCO[C@@]25C[C@H](OC)[C@H]2C[C@]3(O)C5[C@H]2OC)[C@@H]14	8%	2.8	-1	-1.9	13	-2	-3.8
19	CC12CCC3c4ccc(OP(=O)(N5CC5)N5CC5)cc4CCC3C1CCC2=O (configuration not stated)	0%	nt	nt	nt	-4	nt	0.6
20	COc1ccc(OC)c(N2C(=O)NC(=O)C(CCc3ccncc3)(CCc3ccncc3)C2=O)c1	23%	6.0	-22	2.3	-7	-19	5.2
21	COP(=O)(OC)/C(C=O)=N/Nc1ccc([N+](=O)[O-])cc1	-1%	2.9	-31	-0.2	14	5	0.6
22	CN1CCN(Cc2nc3ccccc3n2C)CC1	8%	2.6	-8	3.4	-6	-24	-4.9
23	CC1(C)CN2C(c3ccc(Cl)cc3)N2C1 (configuration not stated)	-4%	-1.0	-2	0.0	6	-1	-0.8
24	CS(=O)(=O)NNP(=O)(NNS(C)(=O)=O)NC(=O)c1ccccc1	11%	-1.8	17	0.3	8	18	-1.3
25	CN1C(=O)N(C)C(=O)C2(Sc3ccccc3C2=O)C1=O	19%	0.7	nt	nt	5	20	-0.3

The last two compounds of the part before open the next one:
entry	structure	Vif A3G	LANA-H2A inh	Calb FLC	RanGTP-Imp inh	B2AR ag	ALR inh	HNF4A DNA FP
24	CS(=O)(=O)NNP(=O)(NNS(C)(=O)=O)NC(=O)c1ccccc1	11%	-1.8	17	0.3	8	18	-1.3
25	CN1C(=O)N(C)C(=O)C2(Sc3ccccc3C2=O)C1=O	19%	0.7	nt	nt	5	20	-0.3
26	O=C1NC(=O)N(Cc2ccccc2)C(=O)/C1=C\C=C\c1ccco1	4µM*	2.4	14	?	67*	19	18
27	CC(C)N(CCC(C(N)=O)(c1ccccc1)c1ccccn1)C(C)C (configuration not stated)	7%	1.7	nt	-0.3	1&-3	0	-2.4&-0.4
28	CC(c1ccccc1)[n+]1ccccc1 (configuration not stated)	nt	-5.5	-6	3.8	20	1	5.5
29	CN1C(=O)/C(=C/C=C/c2ccco2)C(=O)NC1=S	13µM*	-3.7	0	-5.3	58*	8	4.1
30	O=c1c2ccccc2[nH]c(=S)n1-c1ccc2c(c1)OCO2	-1%	2.5	27	-0.9	0	59	2.5
31	COc1cc(/C=N/NC(=O)Cn2c([N+](=O)[O-])cnc2C)ccc1OC(=O)N(C)C	5%	0.8	-13	1.4	5	nt	1.1
32	Cc1ccc(-n2c(O)c(C=NCc3ccco3)c(=O)[nH]c2=S)cc1C	31%	2.7	-1	4.1	2	4	3.7
33	COc1ccccc1N1CCNCC1	27%	-1.1	58	-4.4	-3	-1	-2.7
34	N#CC(=C(O)c1ccc(S(=O)(=O)N(CCCl)CCCl)cc1)c1nc2ccccc2[nH]1	2%	nt	nt	nt	5	nt	-0.6
35	O=c1[nH]c(N2CCN(Cc3ccc4c(c3)OCO4)CC2)nc2c1CCC2	3%	2.9	nt	nt	1	1	1.0
36	COc1ccc(-c2cc(=O)c3c(OC)c(OC)c(OC)cc3o2)cc1	0%	1.6	12	-1.3	-21	-12	2.1
37	CCCC[n+]1cc(/N=C(\[O-])OC)on1	1%	4.6	8	?	3	-3	1.0
38	Cn1cc(C(=O)OCC(=O)NC2(C#N)CCCC2)c2ccccc21	-10%	1.1	nt	nt	-3	1	-0.7
39	Cc1ccsc1C(=O)C1CCCN(Cc2sc(N(C)C)nc2Cl)C1 (configuration not stated)	nt	-6.9	-28	-1.9	-10	-10	3.0
40	COc1ccc(C(O)(c2ccccc2)c2ccncc2)cc1 (configuration not stated)	-3%	nt	nt	nt	-3	nt	1.0
41	CC(=NCC1CCCO1)c1c(O)n(-c2ccccc2C)c(=O)[nH]c1=O (configuration not stated)	22%	2.9	34	1.9	-7	nt	-1.0
42	COCCO[C@H]1CCC2C3CC=C4C[C@@H](O)CC[C@]4(C)C3CC[C@@]21C (some centres not stated)	-3%	4.3	nt	nt	-11	1	-1.6
43	CCCCCCn1c(=O)c(C(=O)Nc2ncccc2C)c(O)c2ccccc21	-9%	0.7	3	-16	-6	1	-0.7
44	CCCC[N+]12CCC(CC1)C(Cc1ccccc1)C2 (configuration not stated)	?	10	-12	4.1	-3	-10	0.8
45	CN1CCN(c2ccc([N+](=O)[O-])c(SCCO)c2)CC1	30%	7.2	-3	0.5	-10	-10	1.2
46	O=c1oc2ccccc2c(O)c1C(c1ccc([N+](=O)[O-])cc1)c1c(O)c2ccccc2oc1=O	23%	nt	-3	-2.2	13	nt	0.0
47	COc1ccc(CN2CCCCC2c2cccnc2)cc1C (configuration not stated)	2%	0.5	13	11	4	5	2.2
48	CCCC12CN3CCN(CC(C3)/C1=N\NC(=O)c1ccncc1)C2	7%	-0.5	16	2.2	3	-4	-2.2
49	O=c1[nH]sc2cc(F)ccc12	7%	nt	6	3.8	4	nt	0.3
50	C[C@@H]1O[C@@H](O[C@@H]2C=C3CC[C@@H]4C(CC[C@]5(C)[C@@H](c6ccc(=O)oc6)CC[C@]45O)[C@@]3(C)CC2)[C@H](O)[C@H](O)[C@H]1O (some centres not stated)	nt	0.3	nt	nt	2	-3	0.6

Other structures:
entry	structure	Vif A3G	LANA-H2A inh	Calb FLC	RanGTP-Imp inh	B2AR ag	ALR inh	HNF4A DNA FP
51	COc1ccc(-c2ccc(OC)c(OC)c2OC)cc1	6%	nt	nt	nt	3	nt	2.4
52	CCN1C(=O)C(=Cc2c(C)n(CC(=O)NCC3CCCO3)c3ccccc23)C(=O)N(CC)C1=S (configuration not stated)	nt	-5.5	-2	-2.4	18	6	14
53	Cc1ccccc1C1=NCC(=O)N(CC(=O)NCc2ccco2)c2sc3c(c21)CCCC3	27%	-3.2	nt	nt	1	0	0.3
54	COC(=O)C1=C(c2ccccc2)C[C@@H]2CC[C@H]1N2C(=O)NCc1ccccc1	nt	-6.4	-8	-0.1	2	1	0.3
55	CCOP(=O)(Cc1ccc(C(=O)CC)o1)OCC	30%	2.0	-13	3.4	-2	-2	-7.8
56	O=c1[nH]c(=O)n(CCc2ccccc2)c(O)c1C=NCCN1CCNCC1	2%	-1.7	-3	1.4	-20	-8	-0.3
57	O=C(O)c1c[nH]c2ccc(S(=O)(=O)N(CCCl)CCCl)cc12	2%	2.5	-1	0.5	-4	2	2.3
58	c1ccc(CCNCc2cccnc2)cc1	0%	-2.3	3	3.8	-8	-12	1.6
59	O=C1/C(=C\c2ccccc2)C2OCC=C3CN4CCC56c7ccccc7N1C5C2C3CC46 (configuration not stated)	-5%	-2.2	15	-4.3	1	-31	-6.1
60	O=[N+]([O-])c1cc([As](=O)(O)c2ccc(O)c([N+](=O)[O-])c2)ccc1O	6%	-1.0	1	-0.1	2	-8	-7.1
61	COc1ccc2c(c1)C1(C(=O)O)CC=CCC1(C(=O)O)C2 (configuration not stated)	0%	nt	nt	nt	-4	nt	-1.8
62	Cc1c(C(=O)c2cccc3ccccc23)c2cccc3c2n1[C@H](CN1CCOCC1)CO3	nt	1.0	23	12	32	2	-0.4
63	C=CCN1CC[C@]23c4c5ccc(O)c4O[C@H]2/C(=N/NC(=O)c2ccccc2)CC[C@@]3(O)[C@H]1C5	nt	-7.0	-9	4.9	-2	9	3.1
64	OC(CN1CCOCC1)c1csc2ccccc12 (configuration not stated)	nt	7.7	-5	0.7	-3	-41	-1.0
65	Cc1ccc(S(=O)(=O)NCCC(=O)Nc2ccc(Cl)cc2C(=O)c2ccccc2)cc1	5%	-1.7	-2	-1.7	-9	-3	-4.2
66	COc1ccc(C2SCC(=O)Nc3c2c(=O)[nH]n3C2CCCCC2)cc1 (configuration not stated)	-5%	-2.1	-3	-0.1	14	3	2.4
67	C=Cn1ccnc1P(=S)(c1ccccc1)c1nccn1C=C	-3%	3.1	15	3.3	-8	-9	-1.3
68	Oc1ccccc1-[n+]1c(-c2ccccc2)cc(-c2ccccc2)c(O)c1-c1ccccc1	nt	-5.0	2	9.0	-11	nt	1.6
69	COc1ccc(Oc2c(C)oc3cc(OC(=O)N(C)C)ccc3c2=O)cc1	-8%	-1.5	-25	1.1	0	-6	2.9
70	C[C@H]1CC[C@@H]2[C@@H](C)[C@H]3[C@H](C[C@H]4[C@@H]5CC=C6C[C@@H](O[C@@H]7O[C@H](CO)[C@H](O)[C@H](O[C@@H]8O[C@H](CO)[C@@H](O)[C@H](O)[C@H]8O)[C@H]7O[C@@H]7O[C@@H](C)[C@H](O)[C@@H](O)[C@H]7O)CC[C@]6(C)[C@H]5CC[C@]34C)N2C1	?	-5.0	-4	17*	7	-38	44*
71	COC(=O)C(O)(c1c(C)[nH]n(-c2ccccc2)c1=O)C(F)(F)F (configuration not stated)	?	-0.3	-4	1.9	-9	4	5.2
72	CC(C)c1ccc(OCC(=O)N2CCCN(C)CC2)cc1	2%	-0.3	0	-2.7	-5	-3	-0.5
73	CCOc1cc(C(=O)N2CCC3(CC2)OCCO3)cc(OCC)c1OCC	74%	2.0	-8	4.0	2	?	1.1
74	COc1ccc(C(=O)c2nc3ccccc3n2C(C)C)cc1OC	-3%	1.9	8	-2.0	-5	nt	1.1
75	Cc1ccc(N2C(=O)/C(=C/c3ccc(CN(CCC#N)S(C)(=O)=O)o3)C(=O)NC2=S)cc1C	?	-3.8	17	-2.3	nt	40	nt
